Source: PubChem BioAssay
ALR inh: human ALR oxidase inhibition via reduced H2O2; purified ALR, DTT oxidation, H2O2 HRP-luminol luminescence; hit rate 3.8% among 290,000; P55789; AID 485317; inhibition, % (concentration not given with the values);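 active = mean and each replicate at 75% or more; inconclusive = only one of the two met; inactive = neither met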;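 note: stock transfer was 7.5 nL into about 7.5 µL; 0% = neutral wells and 100% = wells with inactivated enzyme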
Target sequence (P55789 whole entry, looked up): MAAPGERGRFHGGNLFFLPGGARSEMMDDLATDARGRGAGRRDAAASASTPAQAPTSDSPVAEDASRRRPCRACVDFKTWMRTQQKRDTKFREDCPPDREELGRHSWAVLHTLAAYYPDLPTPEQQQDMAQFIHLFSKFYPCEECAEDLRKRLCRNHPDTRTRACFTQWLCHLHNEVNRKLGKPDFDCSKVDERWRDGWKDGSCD
Vif A3G: inhibitors of Vif binding to APOBEC3G peptide, primary screen, biochemical, TR-FRET, GST-Vif 1-94, biotin-A3G peptide, dose response retest (AID 1117319). hit rate 0.57% among 260,000. TR-FRET GST-Vif / biotin-A3G peptide binding; higher % means a stronger effect; test concentration not given here; strong numbers were not always called active. inhibition, %, or IC50 in µM where a hit was titrated;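 active = above the screen mean plus three standard deviations and confirmed in dose response; inconclusive = results disagree or hit not tested in dose response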;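 note: Vif residues 1-94 fused to GST binding biotinylated APOBEC3G peptide 110-148; 0% = full assay without inhibitor and 100% = GST in place of GST-Vif; retest series ran down from 100 µM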
HNF4A DNA FP: change in binding of human HNF4 alpha to DNA | AID 1224865 | activity change, % at 10 µM | HNF4a-FITC DNA binding, fluorescence polarization, 1 h | hit rate 0.3% among 360,000; in the data active = activity change above about 30%, passing the limit was not always enough;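 note: controls were the assay level and a saturating level of protein; the project sought stronger binding though the title names inhibitors; some compounds called inactive have numbers as strong as hits; positive values seem to mean higher polarization but the record does not say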
Target sequence (P41235 whole entry, looked up): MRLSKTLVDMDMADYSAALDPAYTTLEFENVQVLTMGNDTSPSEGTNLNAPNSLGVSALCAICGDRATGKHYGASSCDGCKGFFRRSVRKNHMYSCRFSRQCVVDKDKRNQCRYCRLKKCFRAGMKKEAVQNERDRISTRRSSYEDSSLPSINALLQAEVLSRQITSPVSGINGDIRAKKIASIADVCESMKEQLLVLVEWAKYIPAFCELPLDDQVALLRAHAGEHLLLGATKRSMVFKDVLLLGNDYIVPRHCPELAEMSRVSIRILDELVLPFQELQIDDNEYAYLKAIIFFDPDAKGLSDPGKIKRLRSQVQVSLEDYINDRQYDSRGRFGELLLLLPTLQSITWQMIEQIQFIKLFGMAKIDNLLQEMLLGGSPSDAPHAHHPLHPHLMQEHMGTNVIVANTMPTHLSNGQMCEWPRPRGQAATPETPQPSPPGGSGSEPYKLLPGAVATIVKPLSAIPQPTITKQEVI
RanGTP-Impb inh: inhibitors of RanGTP-importin-beta interaction, primary screen, biochemical, FRET, CFP-Ran, YFP-importin-beta, homogeneous | inhibition, % (no concentration beside the values) | hit rate 1.1% among 300,000 | AID 2216 | cell-free CFP-Ran/YFP-importin-beta FRET ratio;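 active = most replicates above 15%; inconclusive = exactly half above 15%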;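 note: 0% = DMSO wells and 100% = Ran loaded with GDP instead of GTP; wells of about 40 µL received 100 nL stock; the first replicate is given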
B2AR ag: agonists of human beta-2 adrenergic receptor inducing internalization; Am2.2-beta2AR cells, FAP receptor internalization, flow cytometry; reference of the scale not given here; response, % (concentration not given with the values); hit rate 0.43% among 340,000; AID 504454;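 active = response above a set limit, near 3 SD of response in nonfluorescent compounds, cut at about 42% in these data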;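 note: stock transfer was 100 nL into about 11 µL; a reference agonist was the positive control; negative values mostly stem from fluorescent compounds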
Target sequence (P07550 whole entry, looked up): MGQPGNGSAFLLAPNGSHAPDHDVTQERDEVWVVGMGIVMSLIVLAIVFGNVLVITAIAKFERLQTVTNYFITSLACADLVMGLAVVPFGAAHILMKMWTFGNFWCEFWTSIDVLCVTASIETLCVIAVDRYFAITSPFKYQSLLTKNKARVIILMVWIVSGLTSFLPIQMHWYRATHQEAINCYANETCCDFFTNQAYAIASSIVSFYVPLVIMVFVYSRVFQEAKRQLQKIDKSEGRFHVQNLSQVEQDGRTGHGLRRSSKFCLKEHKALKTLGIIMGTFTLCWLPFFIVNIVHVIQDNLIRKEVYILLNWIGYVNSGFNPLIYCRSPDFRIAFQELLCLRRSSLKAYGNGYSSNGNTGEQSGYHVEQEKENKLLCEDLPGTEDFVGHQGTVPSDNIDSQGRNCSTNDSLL
LANA-H2B inh: blocks KSHV LANA binding to histone H2A/H2B | cell-free LANA-H2A/H2B peptide, fluorescence polarization | inhibition, % (no concentration beside the values) | hit rate 0.6% among 320,000; in the data active = inhibition mostly above about 10%, no sharp cut-off; inactive = mostly below about 6.7%;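 note: stock transfer was 7.5 nL into about 10 µL; 0% = median of vehicle wells and 100% = median of positive control wells; one replicate is shown; the record names a cut of 25% in any replicate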
Calb FLC: affects C. albicans growth with fluconazole | C. albicans CaCi-2 (fluconazole-resistant clinical isolate) + fluconazole, Alamar Blue growth, 48 h | growth inhibition, % (concentration not given with the values) | hit rate 0.57% among 300,000 | AID 1979;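 active = most replicates above 75%; inconclusive = exactly half above 75%; inactive = most below 75%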;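 note: all wells also contain fluconazole at 8 µg/ml as a sub-toxic cotreatment; 0% = median of DMSO wells and 100% = median of geldanamycin control wells; wells of about 8 µL received 7.5 nL stock; the first replicate is given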
* marks the source's active call; other numbers are inactive results; u = inconclusive; x = not tested or not shown; & = joins results of further samples. An unsorted share of the library; overall some 6.3% were active at least once.

SMILES	ALR inh	Vif A3G	HNF4A DNA FP	RanGTP-Impb inh	B2AR ag	LANA-H2B inh	Calb FLC
CCC(CC)NC(=O)Cc1ccc(F)cc1	x	-3%	3.0	-1.7	-3	0.6	-9
COc1ccccc1NC(=O)CCN1C(=O)C2CC=CCC2C1=O (centres undefined)	11	x	-0.7	2.9	-1	-4.1	-4
CC1(c2nnc(Cc3ccccc3)o2)CC(c2ccc(F)cc2)=NO1 (centres undefined)	x	x	3.1	1.1	-7	1.5	-10
O=C(CCC(=O)N1CCOc2ccccc21)NCCCN1CCCCC1	-3	x	0.8	0.2	-5	-4.6	13
COc1cccc(C2=NOC(C(=O)Nc3ccc4c(c3)OCO4)C2)c1OC (centres undefined)	-10	x	-1.6	-2.8	1	-7.0	-2
CCOc1ccc(/C=C2\CCC(C3CCCC3)C2=O)cc1OC (centres undefined)	1	x	3.4	0.3	-7	3.2	-2
OCCN(CCO)c1cc2c3ccccc3ccc2c2ccccc12	x	-4%	-1.9	x	9	x	x
Cc1ccccc1-c1cc(C(=O)NCc2cccc(C(F)(F)F)c2)n(CC2CC(c3cccnc3)=NO2)n1 (centres undefined)	3	x	4.5	x	x	0.1	x
O=c1c2c(nc3n1CCCCC3)-c1ccccc1CC21CCCC1	-5	0%	-2.4	2.0	-7	2.6	-20
CCOC(=O)c1ccc2nc(NC(=O)c3ccco3)sc2c1	-1	u	2.0	5.1	3	-1.4	19
O=S(=O)(Nc1ccccc1N1CCOCC1)c1ccccc1C(F)(F)F	9	x	1.9	x	5	0.0	x
Cc1ccc2c(c1)nnn2C1CCN(C(=O)NCc2ccccc2)CC1	-6	-1%	-0.1	1.3	-6	-3.0	-2
COc1cc(OC)cc(C(=O)NC(C(=O)NCCc2ccccn2)C(C)C)c1 (centres undefined)	-5	x	1.9	x	-5	4.1	x
O=C(c1ccccc1)N1CCN(c2ccc([N+](=O)[O-])cc2-n2cccc2)CC1	x	2%	0.9	-1.2	3	-2.3	21
Cc1ccc(NS(=O)(=O)c2c(C)ccc3nsnc23)c([N+](=O)[O-])c1	x	x	1.9	1.6	5	-1.0	28
Cc1cccc(S(=O)(=O)N2CCCc3ccccc32)c1	-3	-4%	4.1	-11	-3	-0.6	11
CCNS(=O)(=O)c1ccc(C(=O)OCC(=O)N2CCCc3ccccc32)cc1	-8	-11%	5.1	x	8	-4.5	x
CC(=O)NC1C(=O)N(C)c2ccc(Br)cc21 (centres undefined)	-2	2%	-0.4	-2.7	8	-2.0	0
CC(C)C[C@H]1CNC(=S)N1CC1CCCN1C[C@H](Cc1ccc(O)cc1)N1C[C@H](Cc2ccccc2)N(CC2CCCCC2)C1=S (some centres undefined)	x	3%	-0.6	x	5	x	x
O=C(CSc1nnc(-c2ccco2)n1Cc1ccco1)NCc1cccs1	68	5%	-1.9	-5.5	1	-3.5	-12
CC(C)OCCCn1c(=NC(=O)c2cccs2)c(C#N)cc2c(=O)n3ccccc3nc21	x	11%	-2.5	103*	-3	18	13
O=C(Nc1ccc2c(c1)nc1n2CCN(Cc2ccccc2)C1)NC1CCCCC1	-136	7%	5.2	-0.1	-6	-0.8	6
COc1ccc(N=Cc2[nH]c3ccccc3c2O)cc1	x	18%	89	2.6	4	3.0	-10
Cc1ccc(S(=O)(=O)N(C)c2ccc(OC(=O)c3cccs3)cc2)cc1	x	5%	-5.4	x	14	-2.9	x
CCN(c1ccc(NC(=O)CCNC(=O)c2ccco2)cc1)C(C)C	99*	3%	4.4	-0.7	-4	-4.5	-23
Following part.
SMILES	ALR inh	Vif A3G	HNF4A DNA FP	RanGTP-Impb inh	B2AR ag	LANA-H2B inh	Calb FLC
Cc1ccc(-c2nn(-c3ccccc3)cc2CNCc2ccccc2)cc1	-5	11%	-6.4	-0.4	41	6.2	3
COC(=O)c1cc(-c2c(-c3cc(OC)c(OC)c(OC)c3)noc2C)cc([N+](=O)[O-])c1	0	x	-7.5	0.8	0	-2.7	7
COc1ccccc1NC(=O)Cc1noc(CSc2nnc(C)s2)n1	-5	0%&-5%	2.0	-1.6	-5	-1.5	38
CCOc1ccc(/C=N/NC(=O)c2ccoc2C)cc1OC	-6	x	-6.2	0.9	10	-11	-18
O=C(COC(=O)c1ccccn1)NCc1ccc(Cl)cc1Cl	-2	6%	1.4	x	0	8.9	x
CCn1c(SCC(=O)NC2CC2)nnc1-c1ccc(C)cc1	2	-3%	3.7	-3.5	-5	1.5	7
CCOC(=O)c1cnc(SC)nc1Oc1cccc(NS(=O)(=O)c2ccccc2)c1	x	26%	1.2	-1.5	9	-2.0	-2
Nc1c(Cl)cc(C2=NCCn3c2c2ccc([N+](=O)[O-])cc2[n+]3[O-])cc1Cl	-30	x	12	-3.2	-12	0.3	39
Cc1ccccc1OCCC(=O)N1CCN(S(=O)(=O)c2ccccc2F)CC1	-4	-7%	0.2	0.6	-1	-0.8	1
O=C(CCCCn1c(=O)c2ccccc2n(Cc2ccc(Cl)cc2)c1=O)NCc1ccco1	-7	6%&4%	3.5	-3.0	-9	-4.2	-1
Cc1ccc(CNC(=O)C2CCN(S(=O)(=O)c3cccnc3)CC2)cc1	-11	x	3.3	-0.6	2	3.9	-19
Cc1c(C(=O)N/N=C/c2cccc(O)c2)nnn1-c1nonc1N	2	x	-0.3	1.8	-8	-1.5	4
Cc1cc(=O)oc2cc(Oc3ccc(C(N)=O)cc3[N+](=O)[O-])ccc12	x	u	-0.9	2.8	0	-2.1	-1
CCOC(=O)c1ccc(NC(=O)C2CCN(S(=O)(=O)c3ccccc3)CC2)cc1	-34	x	-3.0	1.1	16	-5.9	21
CCS(=O)CCSc1nc2ccccc2s1 (centres undefined)	99*	9%	-3.1	-0.2	-5	2.8	1
CCN1C/C(=C/c2cccs2)c2nc3ccccc3c(C(=O)O)c2C1	10	22%	-21	-47	1	11*	-4
COc1ccc(OCC(=O)NCCCn2ccnc2)cc1	0	5%	4.2	1.4	3	0.4	-1
CN(C)/C=N/c1ncc(C(=O)c2ccc(-c3ccccc3)cc2)s1	x	-14%	-1.4	4.2	5	x	27
O=C(c1ccc(F)cc1)N1CCCC(c2ccccc2)C1 (centres undefined)	-8	6%	-2.3	3.5	1	4.4	-7
Cc1cc2cc(CCNC(=O)c3cccs3)c(=O)[nH]c2cc1C	-6	-48%	4.4	0.3	-3	-2.5	8
COC(=O)N/N=C/c1cc(Cl)c(OCc2ccccc2F)c(OC)c1	-11	4%	0.0	0.1	-15	-1.1	-4
COCCOC(=O)/C=C1/NC(=O)CS1	6	-17%	2.5	-1.2	-3	2.5	3
Clc1cc(Cl)cc(CSc2nnc(-c3sccc3-n3cccc3)o2)c1	-17	15%	-0.3	2.7	3	3.7	13
CC(C)c1nc2cc3ccccc3cc2[nH]1	6	-3%	3.3	-7.1	-3	4.7	3
Cc1cc(C)nc(NCCC(=O)O)n1	-3	-1%	1.8	-0.5	-1	-5.1	-7
More records.
SMILES	ALR inh	Vif A3G	HNF4A DNA FP	RanGTP-Impb inh	B2AR ag	LANA-H2B inh	Calb FLC
Cc1ccccc1NC(=O)CN1C(=O)c2ccccc2C1=O	1	3%	3.3	5.0	-2	-2.0	-9
COC(=O)c1c(-c2ccsc2)sc2ccc(-c3cc(OC)c(OC)c(OC)c3)cc12	1	x	-1.2	x	3	1.8	x
CCCNc1nc(-c2cc(-c3ccc(Cl)cc3)on2)cc(C(C)C)n1	1	-3%	0.4	-0.8	3	-0.7	-13
Cc1ccc(S(=O)(=O)Cc2nnnn2-c2ccccc2)cc1	-3	x	4.0	1.7	-1	1.1	5
CC(=O)Oc1ccc(C(=O)Nc2cccc(C(=O)c3cccc(NC(=O)c4ccc(OC(C)=O)cc4)c3)c2)cc1	-3	-40%	12	0.3	57*	-0.2	29
Cc1c(/C(O)=C2\C(=O)C(=O)N(CCN(C)C)C2c2cccs2)cnn1-c1ccccc1 (centres undefined)	-1	1%&-7%	-0.2	0.6	-7	-5.1	0
Cc1cccc(NC(=O)c2nc[nH]c2C(=O)Nc2ccccc2[N+](=O)[O-])c1	-4	10%	2.4	-1.5	6	-8.5	1
C=C(C)Cn1cnc2cc(C)c(C)cc21	19	12%	-0.1	4.9	-1	10	4
O=C(CCC(=O)NNC(=O)Cc1ccccc1)NCc1ccccc1	-12	6%	1.9	-1.6	13	3.5	-15
Cc1ccc(-n2[nH]c(C)c(CCC#N)c2=O)cc1	38	0%	-0.1	-1.2	-3	-1.8	-17
COC1OC(CO)C(O)C(O)C1O (centres undefined)	2	-8%	1.7	0.5	-1	6.2	2
COc1ccc(Nc2nc(-c3c[nH]c4ccccc34)cs2)cc1	-1	x	23	-1.2	10	-1.1	-10
O=C(Nc1ccc(Cl)cc1)Nc1ccc(S(=O)(=O)Nc2ncccn2)cc1	3	-4%	-2.5	-0.6	4	-0.6	3
Cc1ccc(S(=O)(=O)N2CCOCC2)cc1NC(=O)CSc1nnc2n1CCCCC2	x	x	-4.3	x	1	-2.2	x
Cc1cc(OCc2ccccc2)ccc1/C(O)=C1/C(=O)C(=O)N(Cc2cccnc2)C1c1ccncc1 (centres undefined)	x	-9%	-3.6	-3.1	7	0.8	-5
CC(=O)Nc1cc2cc(NS(=O)(=O)c3ccc(C)cc3)ccc2oc1=O	-4	16%	-5.6	u	6	0.0	3
OCc1ccccc1OCCCOc1cccc2cccnc12	-30	x	3.5	-3.4	-4	0.4	-24
COc1ccc(N2C(=O)CC(NCc3cccs3)C2=O)cc1 (centres undefined)	-11	4%	1.8	-0.7	-1	1.1	1
O=C(O)c1cccc(C(=O)O)c1Br	1	x	0.3	u	-9	-3.9	0
CCN(CC)CC(=O)Nc1sc(C)cc1C(=O)c1ccc(C)cc1	-3	8%	-4.7	u	1	-0.4	17
CCN1CCN(c2ccc(S(=O)(=O)N3CCOCC3)cc2NC(=O)c2ccc(C)c(C)c2)CC1	x	-5%	-0.3	1.0	3	-0.8	0
O=C(OCc1ccc(Cl)cc1)c1cccnc1Cl	1	3%	1.7	2.7	-5	3.1	-2
CCNC(=O)/C(C#N)=C/c1c(N2CCN(c3ccc(OC)cc3)CC2)nc2c(C)cccn2c1=O	-3	x	2.5	11	5	-2.6	4
COc1cccc(C(=O)Nc2nnc(-c3cccs3)o2)c1	-12	1%	3.2	0.4	15	-0.3	4
CCCCc1cc(=O)oc2cc(C)cc(OC(C)C(=O)NCc3cccnc3)c12 (centres undefined)	0	x	5.1	-1.2	0	0.9	-4
Carrying on.
SMILES	ALR inh	Vif A3G	HNF4A DNA FP	RanGTP-Impb inh	B2AR ag	LANA-H2B inh	Calb FLC
CN(C)c1ccnc2sc(C(=O)c3ccc(Br)cc3)c(N)c12	-3	-4%	0.9	9.9	6	-6.2	17
COc1ccccc1/C=C/C(=O)Nc1cccnc1Cl	-6	1%	3.9	6.4	-2	-1.0	-4
COc1ccc(CCNC(=O)CCCOc2cccc(C)c2C)cc1OC	-10	x	-0.9	6.0	-11	-3.7	-1
CC(CCc1ccco1)NC(=O)CCc1nnc2ccc(NCc3ccc(Cl)cc3)nn12 (centres undefined)	-5	x	2.6	3.0	3	0.0	7
O=C1c2cccc3cccc(c23)C(=O)N1OS(=O)(=O)c1ccc(Cl)cc1	25	x	-3.5	1.8	-3	7.1	-11
CC(=O)NNC(=O)c1csc(Cc2c(Cl)sc3ccc(Cl)cc23)n1	21	-11%	-1.8	1.0	8	1.8	-7
COc1ccccc1-n1cnnc1SCC(=O)NCC1CCCO1 (centres undefined)	-3	3%	5.2	-1.9	-1	1.6	-1
Cn1c(CCN2CCCCC2)nc2cc(NS(=O)(=O)c3ccc(F)cc3)ccc21	-8	-2%	0.7	-1.6	4	3.0	-12
